Vaccinia Venus: vaccinia inhibition (Venus reporter) | Vaccinia virus Venus reporter expression, fluorescence | Potency, µM (doses to about 36.5 µM), inactives show at the highest dose activity change, negative = inhibition, hits mostly inhibitors | 330,000 tested, 0.46% active | AID 720580; active means well fitted inhibition curve with a large enough effect; inconclusive means small, poorly fitted or top-dose-only effect; inactive means no such curve, though single readings can be large or run the other way; tested in A549 cells; also: nearly all actives have a fitted effect of over 30% in size; inactives centre near -10
VACV mCherry inh: vaccinia inhibition (mCherry reporter); Vaccinia virus mCherry reporter infection, fluorescence; about a quarter of the inactives have no number; Potency, µM (top dose mostly 36.5 µM), without a hit: top-dose activity change, negative = inhibition, most hits filed as inhibitors; 310,000 tested, 0.63% active; AID 720579; active = well fitted inhibition curve with a large enough effect; inconclusive = small, poorly fitted or top-dose-only effect; inactive = no such curve, though single readings can be large or run the other way; tested in A549 cells; also: nearly all actives have a fitted effect of over 35% in size; inactives centre near -10
The depositor's hits bear a star; i = inactive; u = inconclusive; x = not tested or not shown; & = joins results of further samples; [ ] = another dose, or the depositor's remark. % is scaled to controls: 0 for no effect and ±100 for the full control effect; potency is read from the fitted curve at half-maximal effect.

mol | Vaccinia Venus | VACV mCherry inh
COc1ccc(/C=N/N=C/c2c[nH]c(=O)c(C#N)c2Nc2ccccc2)cc1 | 1% | i
COc1ccc(CNC(=O)CSCc2nc(-c3ccccc3C)oc2C)cc1 | -2% | -2%
C#CCNC(=O)C[C@@H]1C[C@@]2(C(=O)OC)CCCCC=C2N(CCC2=CCCCC2)C1=O | -6% | 21%
COc1ccc(CNC(=O)C[C@H]2C[C@H](C(=O)N(C(C)C)C(C)C)[C@@]3(C)c4[nH]c5cc(CCC(=O)N(C)C)ccc5c4CCN3C2=O)cc1OC | -8% | i
CCNc1ccc(/C=C/c2ccnc3ccccc23)cc1 | 15% | -14%
COc1ccc(Cl)cc1NC(=O)c1cc(-c2cc(C)ccc2O)n[nH]1 | -9% | u
O=Cc1ccc(C(=O)OCC(=O)N2CCCC2)cc1 | -4% | -6%
COc1ccc(Br)cc1C1C(C(=O)Nc2ccc(C)cc2C)=C(C)Nc2ncnn21 (configuration not stated) | 8% | -5%

Additional records.
mol | Vaccinia Venus | VACV mCherry inh
COc1ccc2c(c1)OC[C@H]1[C@@H]2N2C(=O)CNC(=O)[C@@]2(C)[C@H]1c1ccccc1 | -14% | -2%
CC(Oc1ccc(Cl)cc1)c1ccn[nH]1 (configuration not stated) | -5% | -10%
CC1(C)Cc2cccc(C(=O)NCc3ccco3)c2O1 | 4% | 2%
Cc1ccc2c(c1)C(=O)OC(C(=O)Nc1ccccc1C(=O)O)C2 (configuration not stated) | -3% | -17%
Nc1ccc(S(=O)(=O)NCC2CCCCO2)cc1 (configuration not stated) | -11% | -1%
COc1cccc(C2CC(c3c(F)cccc3Cl)n3nc(N)nc3N2)c1 (configuration not stated) | 17% | x
CCn1cc(S(=O)(=O)c2ccc(C)cc2)c(=O)c2cc(OC)ccc21 | -2% | i
CC(=O)Nc1cccc(NC(=O)CSc2ncc(C(=O)Nc3ccccc3)c(=O)n2C)c1 | -1% | -9%

Exported as labelled records: two of the compounds above
> COc1cccc(C2CC(c3c(F)cccc3Cl)n3nc(N)nc3N2)c1 (configuration not stated)
  Vaccinia Venus: 17%
  VACV mCherry inh: x
> COc1ccc(CNC(=O)CSCc2nc(-c3ccccc3C)oc2C)cc1
  Vaccinia Venus: -2%
  VACV mCherry inh: -2%

The list goes on:
mol | Vaccinia Venus | VACV mCherry inh
Fc1ccc(CNc2cc(-c3ccccc3)nc3nncn23)cc1 | -9% | -11%
COc1ccc2[nH]c3c(c2c1)CCNC3C (configuration not stated) | -6%&-9% | u
O=C(CCCc1ccccc1)Nc1cccc2c1CCCC2 | 20% | x
O=C(CNC(=O)c1ccc(Cl)cc1Cl)OC1CCCCC1=O (configuration not stated) | -11% | -15%
O=S(=O)(N[C@@H]1CC[C@H](CCNS(=O)(=O)c2ccccc2Cl)O[C@@H]1CO)c1ccccc1 | -7% | -15%
CCc1nn(CC(=O)NC(C)CCc2ccccc2)c(=O)c2cc3cc(F)ccc3n12 (configuration not stated) | -3% | 6%
COc1cccc(C(=O)CSc2nnc(CNc3nc(-c4ccccc4)cs3)n2C)c1 | -22% | x
CCn1c(CC(=O)Nc2ccccc2F)nnc1SCC(=O)Nc1nncs1 | -8% | -7%

Additional structures follow:
mol | Vaccinia Venus | VACV mCherry inh
CS(=O)(=O)Nc1cccc(-c2nc(N3CCOCC3)c3ccccc3n2)c1 | -6% | -2%
CCS(=O)(=O)N1CCc2cc(C(=O)NCCc3ccc(OC)c(OC)c3)ccc21 | -5% | -18%
CCCCCCCCS(=O)c1sc2nc3c(cc2c1N)CCCC3 (configuration not stated) | -24% | -24%
COc1ccc(CC(=O)NCCc2ccc3c(c2)OCO3)cc1OC | -11% | i
CC(C)(C)C1CCC(=NNC(=O)c2ccc(Br)o2)CC1 (configuration not stated) | 4% | -13%
COc1ccc(OC)c2c1CCC1(C2)NC(=O)NC1=O (configuration not stated) | -1% | 23%
CCCCCn1c(=O)[nH]c2cc(C(=O)NCc3ccc(Cl)cc3)ccc2c1=O | -5% | -1%
O=C(Nc1cccc(F)c1)c1ccc(Br)o1 | -3% | -10%

Following part:
mol | Vaccinia Venus | VACV mCherry inh
O=C(c1ccccc1NS(=O)(=O)c1ccc2c(c1)OCCO2)N1CCOCC1 | -3% | u
Cc1cc([N+](=O)[O-])ccc1NC(=O)CSc1nccc(=O)[nH]1 | 6% | -10%
Cc1cc2c(cc1C)NC(CC(=O)Nc1ccccc1)C(=O)N2 (configuration not stated) | -7% | 1%
Cc1noc(C)c1S(=O)(=O)N1CCN(c2ccccc2)CC1 | 0% | -30%
CCOC(=O)c1[nH]c2ccc(OCC)cc2c1NC(=O)CN1CCN(c2ccccn2)CC1 | u | x
CN1CCC(OC(c2ccccc2)c2ccccc2)CC1 | -9%&-11% | i
O=S(=O)(c1ccccc1)N1N=C(c2ccc(Cl)cc2)CC1c1ccco1 (configuration not stated) | -29% | -13%
CCCCCCn1nc(C(=O)OCC(=O)NC2CCS(=O)(=O)C2)c2ccccc2c1=O (configuration not stated) | 1% | -9%

Next section
mol | Vaccinia Venus | VACV mCherry inh
Cc1cccc(C)c1Nc1c(-c2ccccc2O)nc2ncccn12 | -17%&-12% | u
O=C(Cn1cnc2ccccc2c1=O)Nc1cccc(S(=O)(=O)N2CCCCC2)c1 | -11% | -21%
CC(Oc1ccc(F)cc1F)C(=O)/C=C/N(C)C (configuration not stated) | -10% | -12%
O=C(O)CCc1nn2c3ccccc3n(Cc3ccccc3F)c2nc1=O | -5% | -3%
Cc1ccnc2ccc([N+](=O)[O-])cc12 | -6% | -14%
CC1CCN(S(=O)(=O)c2cccc(C(=O)N(C)C3(C)CCS(=O)(=O)C3)c2)CC1 (configuration not stated) | -15% | -3%
Cn1c(SCC(=O)c2ccc(F)cc2)nnc1-c1cccnc1 | 4% | i
CCOc1ccc2nc(NCCNC(=O)C(C)C)c(C)cc2c1 | -14% | -28%

Ordered by count of non-hydrogen atoms (lowest first): part of the list above
mol | Vaccinia Venus | VACV mCherry inh
Cc1ccnc2ccc([N+](=O)[O-])cc12 | -6% | -14%
CCOc1ccc2nc(NCCNC(=O)C(C)C)c(C)cc2c1 | -14% | -28%
O=S(=O)(c1ccccc1)N1N=C(c2ccc(Cl)cc2)CC1c1ccco1 (configuration not stated) | -29% | -13%
O=C(O)CCc1nn2c3ccccc3n(Cc3ccccc3F)c2nc1=O | -5% | -3%
CC1CCN(S(=O)(=O)c2cccc(C(=O)N(C)C3(C)CCS(=O)(=O)C3)c2)CC1 (configuration not stated) | -15% | -3%
O=C(Cn1cnc2ccccc2c1=O)Nc1cccc(S(=O)(=O)N2CCCCC2)c1 | -11% | -21%
CCCCCCn1nc(C(=O)OCC(=O)NC2CCS(=O)(=O)C2)c2ccccc2c1=O (configuration not stated) | 1% | -9%

Continuation:
mol | Vaccinia Venus | VACV mCherry inh
Cc1[nH]c2ccccc2c1C(=O)C(=O)N1c2ccccc2CC1C (configuration not stated) | u | u
Cn1nccc1C(=O)Nc1ccc(Cl)cc1 | -8% | 0%
CC(=O)N1N=C(c2ccncc2)OC12CCCCCC2 | -5% | i
COc1ccc(N2CC(NC(=O)c3cccs3)CC2=O)cc1 (configuration not stated) | -7% | -2%
CC(=O)Nc1ccc(S(=O)(=O)N(CC(=O)NCC2CCCO2)Cc2ccccc2Cl)cc1 (configuration not stated) | -13% | i
CCOc1ccc(C2=CSC3=NCCN23)cc1Cl | -2% | -1%
COC(=O)c1cc(NC(=O)c2nn(C)c(=O)c3ccccc23)cc(C(=O)OC)c1 | 2% | -18%
O=C(COC(=O)C1COc2ccccc2O1)c1ccccc1 (configuration not stated) | -16% | i

(cont.)
mol | Vaccinia Venus | VACV mCherry inh
COc1ccccc1OCCNC(=O)C1CC(=O)N(c2ccc3c(c2)OCCO3)C1 (configuration not stated) | -4% | -12%
CCOc1ccc(CNC(=O)c2ccc(Sc3ccc(Cl)cc3)c(NC(C)=O)c2)cc1OC | -14%&-27% | -11%&-12%
Cc1ccc(-n2c(=O)c3c(cnn3C)n(Cc3ccccc3F)c2=O)cc1 | -2% | -4%
OCCNc1nc(-c2ccccc2)c2cc(Cl)ccc2n1 | -12% | -21%
O=C(Nc1ccc(SC(F)F)cc1)c1cc(-c2cccs2)on1 | 1% | -16%
COc1ccc(OCCC(=O)N2CCCCC2)cc1 | 0% | -9%
CC(=O)Nc1ccc(S(=O)(=O)Nc2cccc(-c3ccc(N4CCC(C)CC4)nn3)c2)cc1 | -26% | -26%
COc1ccc(-c2cc(C(F)(F)F)n3ncc(C(=O)O)c3n2)cc1OC | -6% | x

(more compounds)
mol | Vaccinia Venus | VACV mCherry inh
O=C(/C=C/c1ccccc1)Nc1cccnc1Oc1ccccc1F | 5% | -4%
O=C(NCc1ccccc1Cl)C(=O)NCC(c1cccs1)S(=O)(=O)c1ccccc1 (configuration not stated) | -3% | i
Cc1cc(NC(=O)C(C)SCC(=O)Nc2nnc(CC(C)C)s2)no1 (configuration not stated) | -5% | -15%
CCCCn1cc(S(=O)(=O)c2ccc(Cl)cc2)c(=O)c2cc(F)c(N3CCCC(C)C3)cc21 (configuration not stated) | -15% | -15%
COc1ccc(-c2[nH]c(-c3ccc(SC)cc3)nc2SCC(=O)Nc2nccs2)cc1 | -22% | -29%
CCc1noc(C)c1C(=O)Nc1ncc(C)s1 | -6% | -16%
CN1CCN(C(=O)c2cnn(-c3ccccc3)c2NC(=O)c2ccccc2F)CC1 | -14% | i
CCOC(=O)c1cccc(NC(=O)c2cc3c(=O)n(Cc4ccccc4)ccc3nc2C)c1 | -9% | -13%

Next structures
mol | Vaccinia Venus | VACV mCherry inh
C[C@H](CO)N1C[C@H](C)[C@@H](CN(C)S(=O)(=O)c2cccs2)Oc2ccc(NC(=O)Nc3ccc4c(c3)OCO4)cc2C1=O | -12% | -14%
O=[N+]([O-])c1ccc(S(=O)(=O)CC(CN2CCOCC2)N2CCOCC2)cc1 (configuration not stated) | u | u
COc1ccccc1N1CCN(S(=O)(=O)c2cnc[nH]2)CC1 | -8% | i
C/C(=C/C(=O)Nc1cccc(F)c1)N1CCCC1 | -13% | i
O=C(CSc1nnc(CNC(=O)c2ccco2)o1)c1ccc(Cl)cc1 | -3% | -19%
O=C(Nc1nnc(-c2ccc(Cl)s2)o1)C1CCCCC1 | -24% | -1%
COc1ccccc1CNS(=O)(=O)c1cc(C(=O)NCc2ccccn2)c(Cl)cc1Cl | -25% | i
COc1ccc(C2(c3ccc(OC)cc3)NC(=O)N(CC(=O)N(C)C3CCC(C)CC3)C2=O)cc1 (configuration not stated) | -29% | -13%

Additional entries follow.
mol | Vaccinia Venus | VACV mCherry inh
CC12CN3CC(C)(CN(C1)C3c1cccnc1)C2=O (configuration not stated) | -5% | -19%
COCCNC(=O)c1ccc2c(=O)n(CCc3ccccc3)c(SCC(=O)CC(=O)OC)nc2c1 | -11% | -13%
Cc1ccc(C(=O)OCC(=O)Nc2cccc(S(=O)(=O)NC3=NCCCCC3)c2)c(C)c1 | -14% | -8%
O=C(CN1C(=O)c2ccccc2C1=O)Nc1sc2c(c1C(=O)NCc1ccco1)CCCC2 | -2% | -15%
Cn1c(SCC(=O)Nc2ccccc2)nc2c([nH]c3ccccc32)c1=O | u | u
Cc1cccc(C(O)(C(=O)O)c2ccccc2)c1 (configuration not stated) | -6% | -9%
Cc1cc(C)c(S(=O)(=O)N2CCCCCC2)cc1Br | -3% | -7%
Cc1cccc(C)c1NC(=S)NNc1ncc(C(F)(F)F)cc1Cl | -11% | -14%

Additional structures follow:
mol | Vaccinia Venus | VACV mCherry inh
Cc1ccc(-n2c(C)cc(C(=O)CN3C(=O)C(=O)N(C4CCCC4)C3=O)c2C)cc1 | -11% | -19%
CC1(C)CC(=O)C=C(c2cccc3c2sc2ccccc23)C1 | -30% | -8%
O=C(NCc1ccc2c(c1)OCO2)c1ccc(-n2cnnn2)cc1 | -18% | i
Cc1ccc(-c2cc(C(=O)N3CCN(c4ccccc4)CC3)c3ccccc3n2)cc1C | -10%[7.34 µM] | -11%[7.34 µM]
c1ccc([C@H]2CN3CCSC3=N2)cc1 | -14% | i
O=C(O)c1cccc(-n2cccc2C=C2C(=O)c3ccccc3C2=O)c1 | -11% | -6%
O=C1CCCc2ccc3ccccc3c21 | -12% | -15%
COc1cc(NC(=O)CCc2c(C)nc3nc(-c4cc(OC)cc(OC)c4)nn3c2C)cc(OC)c1 | -13% | -11%

More entries
mol | Vaccinia Venus | VACV mCherry inh
COc1ccc(OC)c(S(=O)(=O)NCc2nc3nc(C)cc(C)n3n2)c1 | -5% | -1%
CCc1ccccc1NC(=O)CCc1c(C)nc(SC)nc1C | -12% | -13%
CN1C(=O)C2(c3ccccc31)N(c1cccc(C(F)(F)F)c1)C(=O)CS2(=O)=O (configuration not stated) | 3% | 6%
CC(=O)c1ccc(NC(=O)Oc2ccccc2)cc1 | 27% | x
COc1cccc(C(C)(O)c2nc(/C=C/c3ccccc3)cs2)c1 (configuration not stated) | -4% | -12%
COCCNC(=O)CC(=O)N/N=C/c1cccc(C(=O)OC)c1 | -3% | i
Cc1nc2ccccc2c(=O)n1NC(=O)c1cc(Br)ccc1Cl | 2% | -7%
O=C(/C=C/c1ccccc1)Nc1cccnc1Cl | -18% | -22%

Following part.
mol | Vaccinia Venus | VACV mCherry inh
COc1ccc(C(CNC(=O)c2ccc(OCC3CCCO3)cc2)N2CCOCC2)cc1 (configuration not stated) | -4% | -16%
CCOc1ccccc1NC(=O)N1CCC(C(=O)c2ccc(F)cc2)CC1 | -12% | -25%
c1ccc(Cn2cc(-c3ccccc3)cn2)cc1 | -8% | -15%
CN(CCc1ccccn1)C(=O)CCC1CCCN(C(=O)c2cscn2)C1 (configuration not stated) | -3% | -18%
Cc1ccc(NC(=O)c2ccc(=O)[nH]c2)cc1S(=O)(=O)N1CCCCCC1 | -14% | -26%

Screening data deposited in PubChem by National Center for Advancing Translational Sciences (NCATS).

An unsorted share of the library (roughly 0.82% active in at least one column).
